Source: PubChem (NMMLSC)
RGS4-Gao reg: human RGS4-Galphao interaction regulation | Multiplexed bead flow cytometry, RGS4-Galphao binding; actives lie on both sides | AID 1415 | binding response (% of control), % at 10 µM | 220,000 tested, 0.33% active | P09471; in the data active means binding response below about 49% or above about 150%; inactive means in between;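 further: fluorescent Galphao activated with aluminum fluoride binding bead-coupled RGS4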
Target sequence (P09471 whole entry, looked up): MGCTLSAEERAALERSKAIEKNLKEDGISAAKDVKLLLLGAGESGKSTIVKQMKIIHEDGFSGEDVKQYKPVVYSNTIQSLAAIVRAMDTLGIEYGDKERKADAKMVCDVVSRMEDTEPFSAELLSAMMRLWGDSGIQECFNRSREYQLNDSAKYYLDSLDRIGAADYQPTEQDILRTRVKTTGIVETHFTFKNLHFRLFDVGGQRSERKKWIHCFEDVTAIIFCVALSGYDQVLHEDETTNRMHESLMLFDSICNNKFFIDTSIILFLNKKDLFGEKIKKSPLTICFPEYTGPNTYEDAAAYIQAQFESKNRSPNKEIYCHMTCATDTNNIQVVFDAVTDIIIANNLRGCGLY
ABCG2 block: blocks JC-1 efflux by human ABCG2 transporter; IgMXP3 cells, flow cytometry; inhibition, % at 6.6 µM; 190,000 tested, 0.1% active;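 active means inhibition above 80%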;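 further: 0% = DMSO and 100% = nicardipine control wells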
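Test system: IgMXP3 (ABCG2) plus far-red-tagged CCRF-Adr (ABCB1) cells. Reagent: JC-1 dye as substrate. Timing: 10 min exposure at 25 °C with rotation, no wash. Measured by: flow cytometric JC-1 green MFI at 530 nm. Read-out: percent efflux inhibition, scaled nicardipine 100% to DMSO 0%. Control set: nicardipine and DMSO wells.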
ABCB1 block: inhibitors of human ABCB1 transporter, ABCG2 counter-screen | P08183 | CCRF-Adr cells, JC-1 efflux, flow cytometry | inhibition, % at 6.6 µM | 190,000 tested, 0.067% active; in the data active means inhibition above about 40%;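 further: 0% = vehicle and 100% = reference inhibitor; higher value means more JC-1 retained so stronger ABCB1 efflux block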
RGS8-Gao reg: regulators of human RGS8-Galphao interaction. response (percent of control binding), % at 10 µM. P09471. AID 1423. 220,000 tested, 0.34% active. multiplexed bead flow cytometry, RGS8-Galphao binding; actives lie on both sides; in the data active means response below about 60% or above about 140%; inactive means in between;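 further: Galphao activated as the GDP aluminium fluoride complex binding bead-coupled RGS8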
RGS7-Gao: modulates binding of RGS7 to human Galphao | 220,000 tested, 0.35% active | binding response (% of control), % at 10 µM | Multiplexed bead flow cytometry; actives lie on both sides | AID 1439; in the data active means binding response below about 49% or above about 150%;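 further: fluorescent Galphao held in activated GDP-AlF4 state binding bead-coupled RGS7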
GSH fluor: GSH bead compound fluorescence profile | GSH beads flow cytometry, compound fluorescence 488/530 nm; active compounds read high | fluorescence (KMESF) at 10 µM | 190,000 tested, 0.25% active; in the data active means fluorescence above about 89;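 further: glutathione beads carrying GST-tagged Bcl family fusion proteins plus one bare bead set; values are compound well signal with DMSO vehicle wells as background; inactives centre near 16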
Numbers without * were called inactive.

Short forms – A = RGS4-Gao reg; B = ABCG2 block; C = ABCB1 block; D = RGS8-Gao reg; E = RGS7-Gao; F = GSH fluor
c1ccc2c(c1)CCCN2Cc1nnc2n1CCCCC2
  A = 109 | B = 1 | C = 0.0 | D = 104 | E = 108 | F = 49

O=c1ccc2cc3c([nH]c4ccc(Br)cc43)oc-2c1O
  A = 67 | B = 1 | C = 1.0 | D = 68 | E = 63 | F = 12

Cc1ccc2cc(C)c3nnc(SCC(=O)N4CCN(C(=O)c5ccco5)CC4)n3c2c1
  A = 100 | B = 2 | C = 0.1 | D = 101 | E = 98 | F = 4

COc1ccc(OC)c(NC(=O)COC(=O)c2cc3c(s2)CCC3)c1
  A = 89 | B = 0 | C = -0.5 | D = 100 | E = 84 | F = 1

CCOC(=O)c1ccc(NC(=O)CSc2nc(C)cc(=O)[nH]2)cc1
  A = 100 | B = -1 | C = -0.3 | D = 100 | E = 96 | F = 8

O=C(CSc1ccc(Cl)cc1)c1ccco1
  A = 97 | B = 0 | C = 0.0 | D = 98 | E = 95 | F = 9

O=C(OC1CCCCC1)c1ccc2c(c1)C1C=CCC1C(C(=O)O)N2 (centres undefined)
  A = 82 | B = -3 | C = -0.8 | D = 82 | E = 65 | F = 17

Cc1csc(NC(=O)c2cc(-c3ccco3)nc3ccccc23)n1
  A = 88 | B = 8 | C = 1.6 | D = 98 | E = 91 | F = 13

O=S(=O)(Nc1nnc(-c2ccccc2)s1)c1ccc(Cl)cc1
  A = 102 | B = -1 | C = -0.2 | D = 101 | E = 103 | F = 17

COc1cccc(Nc2nc(NCC3CCCO3)c3ccccc3n2)c1 (centres undefined)
  A = 100 | B = 1 | C = 0.6 | D = 104 | E = 100 | F = 15

N#Cc1ccccc1CN1C(=O)S/C(=C/c2cccn2-c2ccc(C(=O)O)cc2)C1=O
  A = 91 | B = 1 | C = 0.0 | D = 92 | E = 87 | F = 23

COc1ccc(NC(=O)c2c3c(nc4ccccc24)CCC3)cc1S(=O)(=O)N1CCOCC1
  A = 89 | B = -3 | C = -0.9 | D = 94 | E = 90 | F = 6

Reprinted at random: 2 entries already listed
Short forms – A = RGS4-Gao reg; B = ABCG2 block; C = ABCB1 block; D = RGS8-Gao reg; E = RGS7-Gao; F = GSH fluor
c1ccc2c(c1)CCCN2Cc1nnc2n1CCCCC2
  A = 109 | B = 1 | C = 0.0 | D = 104 | E = 108 | F = 49

O=c1ccc2cc3c([nH]c4ccc(Br)cc43)oc-2c1O
  A = 67 | B = 1 | C = 1.0 | D = 68 | E = 63 | F = 12

Reprinted from the entries so far, 4 compounds:
Short forms – A = RGS4-Gao reg; B = ABCG2 block; C = ABCB1 block; D = RGS8-Gao reg; E = RGS7-Gao; F = GSH fluor
O=c1ccc2cc3c([nH]c4ccc(Br)cc43)oc-2c1O
  A = 67 | B = 1 | C = 1.0 | D = 68 | E = 63 | F = 12

Cc1ccc2cc(C)c3nnc(SCC(=O)N4CCN(C(=O)c5ccco5)CC4)n3c2c1
  A = 100 | B = 2 | C = 0.1 | D = 101 | E = 98 | F = 4

COc1ccc(OC)c(NC(=O)COC(=O)c2cc3c(s2)CCC3)c1
  A = 89 | B = 0 | C = -0.5 | D = 100 | E = 84 | F = 1

CCOC(=O)c1ccc(NC(=O)CSc2nc(C)cc(=O)[nH]2)cc1
  A = 100 | B = -1 | C = -0.3 | D = 100 | E = 96 | F = 8

These rows are one share of the data. The share of hits here may be higher or lower than overall.
